Compound activity as filed in PubChem.
GSK3B inh: human GSK3beta kinase inhibitors, primary screen, biochemical, cell-free homogeneous, HTS; Glycogen synthase kinase-3 beta (Homo sapiens), P49841; GST-GSK3beta kinase, ADP-Glo luminescence, 60 min; active compounds read low; activity score (negative = inhibition), % at 10 µM; 0.038% of 300,000 active; AID 2097, 2009;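 active means more than half of replicate wells score below -50%, meaning over 50% inhibition versus plate controls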;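 further: 0% = median DMSO wells and -100% = median GW8510 positive control wells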
Target sequence (P49841 whole entry, looked up): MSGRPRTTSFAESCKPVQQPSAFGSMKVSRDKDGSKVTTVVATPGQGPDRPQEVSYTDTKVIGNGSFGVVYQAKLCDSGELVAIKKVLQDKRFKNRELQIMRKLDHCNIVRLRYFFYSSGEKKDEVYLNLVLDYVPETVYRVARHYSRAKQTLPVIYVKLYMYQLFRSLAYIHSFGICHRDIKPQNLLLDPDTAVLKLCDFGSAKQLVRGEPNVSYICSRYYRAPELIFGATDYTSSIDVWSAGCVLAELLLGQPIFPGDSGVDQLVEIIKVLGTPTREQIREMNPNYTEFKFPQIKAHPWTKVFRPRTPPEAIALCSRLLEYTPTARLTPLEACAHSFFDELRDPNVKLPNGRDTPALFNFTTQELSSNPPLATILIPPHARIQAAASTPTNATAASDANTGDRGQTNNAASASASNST
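Test system: GST-fused GSK3beta enzyme, cell-free | Quantity: 1.6 ng GST-GSK3beta enzyme per well | Reagent: 25 µM ATP with peptide substrate | Schedule: 60 min enzyme reaction, room temperature | Signal: Luminescent ADP-Glo measurement of ADP formed | Read-out basis: Score relative to plate controls | Control set: DMSO and 20 µM GW8510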
KCNK9 block: KCNK9 potassium channel inhibitors, primary screen, HEK293 cells, thallium flux; FluxOR thallium flux fluorescence; active compounds read low; B-score at 10 µM; 1.2% of 310,000 active;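 active means ratio B-score over 3 SD below the library mean, with starting fluorescence within 5 SD of its mean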;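 further: negative B-score means less thallium flux so channel inhibition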
GSK3A inh: blockers of GSK3A enzyme activity – biochemical, luminescence, cell-free homogeneous, HTS, primary screen | inhibition, % at 10 µM | 0.1% of 320,000 active | Glycogen synthase kinase-3 alpha (Homo sapiens), P49840 | GSK-3 alpha kinase, ADP-Glo luminescence, 60 min;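 in the data active means inhibition above about 50%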;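 further: GST-tagged GSK-3 alpha with peptide substrate and 25 µM ATP; 0% = DMSO neutral wells and 100% = GW8510 positive control wells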
Dyrk1A ADPGlo: rat Dyrk1A kinase inhibitors, primary screen, biochemical, single point, plate reader; inhibition, % at 12.5 µM; 0.43% of 310,000 active; Dual specificity tyrosine-phosphorylation-regulated kinase 1A (Rattus norvegicus), Q63470; ADP-Glo luminescence, NFATc1 peptide; in the data active means inhibition above about 50%;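 further: plate controls were vehicle with enzyme for no effect and no enzyme for full effect; many of its hits are not listed in these tables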
KCNK3 inh: human KCNK3 channel inhibitors, primary screen, CHO cells, FluxOR thallium flux, B-score. Potassium channel subfamily K member 3 (Homo sapiens), O14649. FluxOR fluorescence; active compounds read low. B-score at 10 µM. 0.84% of 340,000 active;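 active means B-score under library mean minus 4 SD, starting fluorescence ratio at most library mean plus 5 SD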;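 further: more negative B-score means stronger inhibition of thallium flux through KCNK3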
HDAC3 inh: HDAC3 deacetylase inhibitors, primary screen, biochemical, fluorescence, cell-free homogeneous. recombinant HDAC3, fluorogenic peptide/trypsin coupled. inhibition, % at 8.3 µM. 0.15% of 320,000 active; in the data active means inhibition above about 26%, passing the limit was not always enough
Target sequence (O15379 whole entry, looked up): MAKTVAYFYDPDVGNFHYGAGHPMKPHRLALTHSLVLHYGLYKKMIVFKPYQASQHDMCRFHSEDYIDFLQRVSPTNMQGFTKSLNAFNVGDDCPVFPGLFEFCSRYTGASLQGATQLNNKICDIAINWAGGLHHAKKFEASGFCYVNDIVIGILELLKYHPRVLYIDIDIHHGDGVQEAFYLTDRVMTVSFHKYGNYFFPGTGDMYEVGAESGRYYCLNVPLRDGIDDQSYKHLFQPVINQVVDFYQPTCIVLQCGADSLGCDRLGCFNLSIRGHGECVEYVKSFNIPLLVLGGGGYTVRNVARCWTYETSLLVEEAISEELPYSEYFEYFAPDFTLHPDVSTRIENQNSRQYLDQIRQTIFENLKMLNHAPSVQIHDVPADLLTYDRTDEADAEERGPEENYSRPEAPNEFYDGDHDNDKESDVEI
PolyA inh: polyadenylation inhibitors in yeast reporter cells, primary screen, luminescence, S. cerevisiae. S. cerevisiae SKY197-pL101 polyadenylation reporter, beta-gal luminescence; efflux-impaired pdr1/pdr3 knockout yeast; score 100 = 6 SD above DMSO. calls only at 12 µM. 0.02% of 300,000 active. AID 1875, 2009;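 active means lowest replicate activity score at least 50, where 100 means six control SD above control mean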;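 further: yeast exposed to compound for 9 h at 30 °C; higher score means more reporter readthrough which indicates perturbed polyadenylation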
KCNQ1 act: potentiators or activators of KCNQ1 channel, primary screen, cell-based, thallium flux, high-throughput; Potassium voltage-gated channel subfamily KQT member 1 (Homo sapiens), P51787; CHO-K1 KCNQ1, thallium flux FluxOR fluorescence; active compounds read high; B-score at 10 µM; 0.35% of 310,000 active;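 active means fluorescence ratio B-score, a plate-corrected score, at least three library SD, with initial intensity B-score within 5 SD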
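Assay system: CHO-K1 cells stably expressing KCNQ1. Medium: assay buffer for compound exposure, DMSO matched across wells. Timing: 37 °C overnight plating, 90-min dark dye load, 20-min compound pretreatment. Signal: kinetic FluxOR fluorescence, 10 s baseline plus 110 s post-stimulus.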
RGS4 act: RGS4 potentiators or activators, primary screen, cell-based, HEK293 M3R inducible RGS4, calcium flux; carbachol calcium flux Fluo4; active compounds read low; B-score at 10 µM; 0.92% of 310,000 active;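 active means B-score of the integrated calcium signal more than 4 SD below the library mean, with starting fluorescence not abnormally high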;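 further: negative B-score means reduced calcium response which marks RGS4 activation or potentiation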
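System – HEK293 FlpIn-TREx cells, stable M3R, doxycycline-inducible RGS4 · Reagent – ECmax carbachol challenge · Times – compound preincubation 20 min at room temperature before agonist · Technique – Fluo4 fluorescence kinetic imaging of calcium · Measure – B score of integrated Fluo4 ratio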
KCNQ1 inh: inhibitors of human KCNQ1 channel, primary screen, cell-based, thallium flux, high-throughput | CHO-K1 KCNQ1, FluxOR thallium flux fluorescence; active compounds read high | 1.3% of 310,000 active | AID 2642, 2010 | B-score at 10 µM;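 active means compounds whose thallium flux B-score, printed positive for inhibition, exceeds three library SD while starting fluorescence stays within three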;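 further: channel opened by potassium depolarization with thallium stimulus after 20 min compound exposure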
The depositor's hits bear a star; i = inactive; x = not tested or not shown; & = joins results of further samples. An excerpt; the hit share may differ from the screen's.

(1) C[C@]12CC[C@@H]3c4ccc(O)cc4CC[C@H]3[C@@H]1CC[C@@H]2O
(2) CCOc1cc(/C=N/NC(=O)c2cccc(S(=O)(=O)N3CCCC3)c2)ccc1OCC(=O)N(C)C
(3) COc1ccc(C2=NN(C)C(=NCc3ccccc3)SC2)cc1
(4) c1csc(-c2ccn[nH]2)c1
(5) C[C@]12CCC(=O)C=C1CC[C@@H]1[C@@H]2C(=O)C[C@@]2(C)[C@H]1CC[C@]2(O)C(=O)CO
(6) Brc1ccc(CSc2ccc3nnc(-c4cccnc4)n3n2)cc1
entry no.	1	2	3	4	5	6
GSK3B inh	4	6	-16	2	2	-1
KCNK9 block	i	i	i	i	i	i
GSK3A inh	-4	0	-2	-4	-3	-14
Dyrk1A ADPGlo	11	x	3	-2	5	x
KCNK3 inh	i	i	i	i	i	i
HDAC3 inh	-2	0	12	-4	3	-1
PolyA inh	i	i	i	i	i	i
KCNQ1 act	i	i	i	i	i	i
RGS4 act	i	i	i	i	i	i
KCNQ1 inh	i	i	i	i	i	i

(7) O=C(NCc1ccc2c(c1)OCO2)C(=O)NCC1OCCN1S(=O)(=O)c1ccccc1 (stereo unspecified)
(8) O=C(c1ccc(Cl)cc1)C1CCN(Cc2ccccc2)CC1
(9) O=c1c2cc(-c3ccccc3)sc2nc2n1N=C(c1cccs1)CS2
(10) CCCCNc1ccc(C(=O)O)cc1
(11) Cn1c(Nn2cnnc2)nc2ccccc21
(12) Cc1nnnn1-c1cccc(C(=O)O)c1
entry no.	7	8	9	10	11	12
GSK3B inh	0	1	-1	2	-2	3
KCNK9 block	i	i	i	i	i	i
GSK3A inh	-2	2	-1	-4	-5	-3
Dyrk1A ADPGlo	-8	-2	x	6	-2	-7
KCNK3 inh	i	i	i	i	i	i
HDAC3 inh	-5	-2	-5	1	-1	-1
PolyA inh	i	i	i	i	i	i
KCNQ1 act	i	i	i	i	i	i
RGS4 act	i	i	i	i	i	i
KCNQ1 inh	i	i	i	i	i	i

(13) O=C(/C=C\c1ccco1)Nc1nc(-c2ccccc2)cs1
(14) C[C@H](CS)C(=O)N1CCC[C@H]1C(=O)O
(15) COc1cccc(C(=O)Nc2cc3c(cc2N2CCCC2)n(C)c(=O)n3C)c1
(16) COc1cc2ccccc2cc1C(=O)Nc1ccc(Cc2ccncc2)cc1
(17) Nc1ccn([C@@H]2O[C@H](CO)[C@@H](O)[C@@H]2O)c(=O)n1
(18) CN1CCC(=C2c3ccccc3C=Cc3ccccc32)CC1
entry no.	13	14	15	16	17	18
GSK3B inh	3	2	4	2	-1	-1
KCNK9 block	i	i	i	i	i	i
GSK3A inh	0	-2	3	-1	-1	-2
Dyrk1A ADPGlo	3	7	-2	2	-7	3
KCNK3 inh	i	i	i	i	i	i
HDAC3 inh	-1	18	-7	6	1	-3
PolyA inh	i	i	i	i	i	i
KCNQ1 act	i	i	i	i	i	i
RGS4 act	i	i	i	i	i	i
KCNQ1 inh	i	i	i	i	i	i

Arranged by SMILES length (ascending): some entries from above
(10) CCCCNc1ccc(C(=O)O)cc1
(3) COc1ccc(C2=NN(C)C(=NCc3ccccc3)SC2)cc1
(6) Brc1ccc(CSc2ccc3nnc(-c4cccnc4)n3n2)cc1
entry no.	10	3	6
GSK3B inh	2	-16	-1
KCNK9 block	i	i	i
GSK3A inh	-4	-2	-14
Dyrk1A ADPGlo	6	3	x
KCNK3 inh	i	i	i
HDAC3 inh	1	12	-1
PolyA inh	i	i	i
KCNQ1 act	i	i	i
RGS4 act	i	i	i
KCNQ1 inh	i	i	i

Other structures follow.
(19) O=C(N/N=C/c1ccc([N+](=O)[O-])o1)C1CC1
(20) CN1[C@@H]2CC[C@H]1CC(OC(=O)C(CO)c1ccccc1)C2 (stereo partly specified)
(21) OC[C@H]1O[C@@H](O[C@@H]2[C@@H](CO)O[C@@](O)(CO)[C@H]2O)[C@H](O)[C@@H](O)[C@H]1O
(22) COc1cc2c(c(OC)c1OC)-c1ccc(OC)c(=O)cc1[C@@H](NC(C)=O)CC2
(23) COc1ccc(Cn2cc(C(=O)O)c(=O)c3ccccc32)cc1
(24) Cc1ccc(-c2cc(C(F)F)nc(N3CCOCC3)n2)cc1
entry no.	19	20	21	22	23	24
GSK3B inh	-2	1	0	5	1	2
KCNK9 block	i	i	i	i	i	i
GSK3A inh	2	-1	0	1	-2	-2
Dyrk1A ADPGlo	-4	3	4	10	-1	-1
KCNK3 inh	i	i	i	i	i	i
HDAC3 inh	4	3	-9	4	2	x
PolyA inh	i	i	i	i	i	i
KCNQ1 act	i	i	i	i	i	i
RGS4 act	i	-7*	i	i	i	i
KCNQ1 inh	i	i	i	i	i	i

(25) COC(=O)C1=C(C(=O)OC)C(c2cc(Cl)ccc2O)c2sc(=O)[nH]c2S1 (stereo unspecified)
(26) Cc1ccccc1NC(=O)Nc1ccccc1N1CCCCC1
(27) O=C(NC1CCS(=O)(=O)C1)c1c(NC(=O)C2COc3ccccc3O2)sc2c1CCCC2 (stereo unspecified)
(28) CCc1ccc(Cn2nnc(C(=O)NCc3ccccc3OC)c2N)cc1
(29) CCOC(=O)C1=C[C@]2(CC)CCCN3CCc4c(n1c1ccccc41)[C@@H]32
(30) Cc1ccc(/C=C/C(=O)c2ccccc2)cc1
entry no.	25	26	27	28	29	30
GSK3B inh	-2	3	1	-1	0	-1
KCNK9 block	i	i	i	i	i	i
GSK3A inh	25	-1	-1	x	-5	0
Dyrk1A ADPGlo	46	-2	0	4	13	-6
KCNK3 inh	i	i	i	i	i	i
HDAC3 inh	4	1	0	-1	-3	2
PolyA inh	i	i	i	i	i	i
KCNQ1 act	i	i	i	i	i	i
RGS4 act	i	i	i	i	i	i
KCNQ1 inh	i	i	i	i	i	i

(31) Nc1c(SCCC(=O)O)ccc2c1C(=O)c1ccccc1C2=O
(32) C[N+](C)(C)CCCCCCCCCC[N+](C)(C)C
(33) FC(F)(F)c1cc(-c2ccco2)nc2ncnn12
(34) Cc1c(C(=O)N2CCCCC2)c(S(=O)(=O)NCCc2ccc(Cl)cc2)c(C)n1C
(35) C[C@H]1O[C@@H](O[C@H]2[C@@H](O)C[C@H](O[C@H]3[C@@H](O)C[C@H](O[C@H]4CC[C@@]5(C)[C@H](CC[C@@H]6[C@@H]5C[C@@H](O)[C@]5(C)[C@@H](C7=CC(=O)OC7)CC[C@]65O)C4)O[C@@H]3C)O[C@@H]2C)C[C@H](O)[C@@H]1O
(36) O=C1CCC(C(=O)O)N1 (stereo unspecified)
entry no.	31	32	33	34	35	36
GSK3B inh	0	0	-1	1	3&-1	-3
KCNK9 block	i	i	i	i	i	i
GSK3A inh	10	-4	-2	0	-2&-1	-4
Dyrk1A ADPGlo	38	17	-5	-5	4	-3
KCNK3 inh	i	i	i	i	i	i
HDAC3 inh	6	0	-2	-3	0&2	-5
PolyA inh	i	i	i	i	i	i
KCNQ1 act	i	i	i	i	i	i
RGS4 act	i	i	i	i	i	i
KCNQ1 inh	i	i	i	i	i	i

(37) O=S(=O)(Nc1ccc(S(=O)(=O)N2CCCCC2)cc1)c1cccs1
(38) O=C(Nc1nc2ccc(Cl)cc2s1)C1CCCO1 (stereo unspecified)
(39) CC(=O)O[C@H]1C(=O)[C@@]2(C)C([C@H](OC(=O)c3ccccc3)[C@]3(O)C[C@H](OC(=O)[C@H](O)[C@@H](NC(=O)c4ccccc4)c4ccccc4)C(C)=C1C3(C)C)[C@]1(OC(C)=O)CO[C@@H]1C[C@H]2O (stereo partly specified)
(40) CCc1nc2ccc(C(=O)N3CCN(c4cc(C)ccc4C)CC3)cc2nc1CC
(41) Cc1cc(NS(=O)(=O)c2ccc(N)cc2)no1
(42) Cc1ccc(CC2CC(=O)N(c3ncccn3)C2=O)cc1 (stereo unspecified)
entry no.	37	38	39	40	41	42
GSK3B inh	-1	-4	-2	1	4	2
KCNK9 block	i	i	i	i	i	i
GSK3A inh	-23	1	0	x	-2	-2
Dyrk1A ADPGlo	x	76*	-10	8	9	x
KCNK3 inh	i	i	i	i	i	i
HDAC3 inh	0	0	2	14	3	7
PolyA inh	i	i	i	i	i	i
KCNQ1 act	i	i	i	i	i	i
RGS4 act	i	i	i	i	i	i
KCNQ1 inh	i	i	i	i	i	i

Quoted at random: two compounds from above.
(23) COc1ccc(Cn2cc(C(=O)O)c(=O)c3ccccc32)cc1
(25) COC(=O)C1=C(C(=O)OC)C(c2cc(Cl)ccc2O)c2sc(=O)[nH]c2S1 (stereo unspecified)
entry no.	23	25
GSK3B inh	1	-2
KCNK9 block	i	i
GSK3A inh	-2	25
Dyrk1A ADPGlo	-1	46
KCNK3 inh	i	i
HDAC3 inh	2	4
PolyA inh	i	i
KCNQ1 act	i	i
RGS4 act	i	i
KCNQ1 inh	i	i

The list continues:
(43) NS(=O)(=O)c1cc2c(cc1C(F)(F)F)NCNS2(=O)=O
(44) COc1ccc2c(c1OC)C(=O)OC2C1c2c(cc3c(c2OC)OCO3)CCN1C (stereo unspecified)
(45) COC(=O)c1cc(CSc2nc3ccc(C)cc3[nH]2)oc1C
(46) Cc1ccc(S(=O)(=O)N(c2nc(NC(C)C)nc(NC(C)C)n2)n2cnnc2)cc1
(47) Nc1ccc(S(=O)(=O)c2ccc(N)cc2)cc1
(48) Cc1ccc2c(c1)c1c3n2CCNC3CCC1 (stereo unspecified)
(49) COc1ccc2c(c1)c(CC(=O)O)c(C)n2C(=O)c1ccc(Cl)cc1
entry no.	43	44	45	46	47	48	49
GSK3B inh	-1	4&-1	1	0	-1	1	4
KCNK9 block	i	i	i	i	i	i	i
GSK3A inh	x	-2&-3&-1	x	-1	-1	-3	-5
Dyrk1A ADPGlo	-6	7&4&10	3	-11	9	8&-4	0
KCNK3 inh	i	i	i	i	i	i	i
HDAC3 inh	x	-1&-12&-1	2	5	5	-2	-2
PolyA inh	i	i	i	i	i	i	i
KCNQ1 act	i	i	i	i	i	i	i
RGS4 act	i	i	i	i	i	i	i
KCNQ1 inh	i	i	i	i	i	i	i
